Screens: PubChem, National Center for Advancing Translational Sciences (NCATS)
HPGD block – HPGD (human) dehydrogenase inhibition. P15428. purified HPGD, NADH fluorescence kinetic, PGE2 substrate. Potency, µM, for inactives: top-dose activity change, negative = inhibition, usual class: inhibitors. 150,000 compounds, 4.3% hits. AID 894; active = well fitted inhibition curve with a large enough effect (not every such curve was filed as active); inconclusive = small, poorly fitted or top-dose-only effect, or another doubt; inactive = no such curve, though single readings can be large or run the other way;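 further: top concentration of the series not given in the record; plate controls included wells without enzyme; inactives centre near -10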
Target sequence (P15428 whole entry, looked up): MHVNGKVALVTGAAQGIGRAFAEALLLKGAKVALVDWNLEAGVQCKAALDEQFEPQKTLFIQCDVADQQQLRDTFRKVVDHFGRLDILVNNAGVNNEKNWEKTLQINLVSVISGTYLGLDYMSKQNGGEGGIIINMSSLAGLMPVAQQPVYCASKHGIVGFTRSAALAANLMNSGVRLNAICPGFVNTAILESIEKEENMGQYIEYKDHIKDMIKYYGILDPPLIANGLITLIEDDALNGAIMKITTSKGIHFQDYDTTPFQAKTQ
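20 nM HPGD preincubated 15 min at room temperature with compound in 50 mM Tris-HCl pH 8, 0.01% Tween 20. Started with 1 mM NAD+ and 30 uM prostaglandin E2; NADH fluorescence (360/450 nm) read 5 times over 30-s intervals, last minus first.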
* = called active by the depositor; ? = inconclusive; & = joins results of further samples. On the % scale 0 is the no-effect control and ±100 the full control effect; potency means the concentration at half of the fitted maximal effect. The list is partial; the hit share may differ from the screen's.

SMILES | HPGD block
Cc1ccc(/C(C#N)=C\c2ccc(N3CCOCC3)o2)cc1 | ?
CNC(=O)c1ccc(-c2ccc(F)cc2)s1 | ?
O=C(Nc1ccc2c(c1)oc1ccccc12)c1ccc(Br)o1 | -8.5%
Cc1ccc(Cn2c(NCCCn3ccnc3)nc3c2c(=O)n(C)c(=O)n3C)cc1 | -0.9%
COc1ccc(Cc2nnc(SC)[nH]c2=O)cc1 | -9.1%
N#Cc1c(NC(=O)CSc2nnc(-c3ccccc3O)n2-c2ccccc2)sc2c1CCCC2 | ?
O=C(CSc1nc2ccccc2o1)Nc1nc2ccc(Br)cc2s1 | -22.7%
CC(=O)Oc1ccc(-c2nc(-c3cccnc3)no2)cc1 | -4.5%
COc1ccc(OC)c(C2SCCN2S(=O)(=O)c2cccc(C(F)(F)F)c2)c1 (configuration not stated) | -27.4%
COCCN1C(=O)c2oc3ccccc3c(=O)c2C1c1ccc(C(=O)OC)cc1 (configuration not stated) | -17.9%
CC1(OC(=O)C2CCCC2)C(=O)C=C2C=C(c3ccsc3)N(c3ccc(CO)cc3)C=C2C1=O (configuration not stated) | -5.0%
O=S(=O)(O/N=C1\CCCc2ccccc21)c1ccc(Cl)cc1 | -16.4%
CN1CCc2c(sc3c2c(=O)n(-c2ccccc2)c2nnc(SCc4ccccc4)n32)C1 | ?
Oc1c(I)cc(Cl)c2cccnc12 | -8.5%&-20.9%&-9.4%
Cc1cc(C)cc(N2C(=O)C3CC=CCC3C2=O)c1 (configuration not stated) | -8.1%
O=C(CCn1c(=O)[nH]c2ccsc2c1=O)N1CC(=O)N(CCc2ccccc2)C(=O)C1 | -9.4%
CCOC(=O)c1c(C)nc2sc3c(=O)n(-c4ccc(C(C)=O)cc4)nnc3c2c1-c1ccc(Cl)cc1 | -12.1%
COc1ccc(NC(=O)c2c(Cl)n(C)c3ccccc23)cc1 | -6.3%
O=P(O)(c1ccc(Cl)cc1)c1ccc(Cl)cc1 | -1.7%
CCOc1ccc(C2Sc3ccccc3NC3=C2C(=O)OC3)cc1 (configuration not stated) | -10.6%
O=C(Nc1cccc(OCC(=O)N2CCOCC2)c1)C1CCCCC1 | -11.6%
CCc1cc(=O)oc2c(CN3CCN(C)CC3)c(O)c(Cl)cc12 | ?
Cc1ccc(/C=N\NC(=O)Cn2nnc3ccccc32)o1 | -19.5%
Cc1cc(C(=O)CSc2nnc(-c3ccc(Cl)cc3)n2C)c(C)n1CC1CCCO1 (configuration not stated) | -2.4%
CCc1cc2cc(C(=O)N3CCN(c4ccccc4)CC3)sc2s1 | -3.8%
CCc1ccc(S(=O)(=O)NCc2csc(C)n2)s1 | 1.9%
Cc1cccnc1NC(=O)Cn1nc(C)c([N+](=O)[O-])c1C | -7.1%
N#Cc1cc2c(nc1SCc1ccncc1)CCC2 | -22.1%
Nc1ccc(S(=O)(=O)O)cc1 | -10.1%
Nc1nc2n(n1)C(c1ccco1)CC(c1ccc(F)cc1)N2 (configuration not stated) | -11.4%
O=S(=O)(/N=S1/CC=CCN1S(=O)(=O)c1ccccc1)c1ccccc1 (configuration not stated) | 7.94µM*
COc1cc(C2C3C(=O)N(Cc4ccccc4)C(=O)C3ON2c2ccccc2)cc(OC)c1O (configuration not stated) | -21.5%
Cc1ccc(Nc2nnc(SCC(=O)Nc3ccc(S(=O)(=O)N4CCOCC4)cc3)s2)cc1 | -8.7%
CCc1ccccc1N1C(=O)c2cccc3c(N4CCOCC4)c([N+](=O)[O-])cc(c23)C1=O | -9.1%
COC(=O)C1=C(C(=O)OC)C(c2cc(Cl)ccc2O)c2sc(=O)[nH]c2S1 (configuration not stated) | 20µM*
Cc1ccc(S(=O)(=O)Cc2ccc(C(=O)O)o2)cc1 | -22.8%
COc1ccc(/C=N/NC(=O)CN(C2=NS(=O)(=O)c3ccccc32)c2ccccc2)cc1 | -18.8%
S=C(NN=C(C1CC1)C1CC1)Nc1ccccc1 | -7.6%
Cc1ccc(C(=O)N2CCN(c3ccccc3)CC2)cc1S(=O)(=O)N1CCCC1 | -8.8%
Nc1nnc(SC2CC(=O)N(c3ccccc3)C2=O)s1 (configuration not stated) | 31.6µM*
CN(c1cccc(Cl)c1)S(=O)(=O)c1cccc(C(=O)Nc2ccc3c(c2)CCC3)c1 | -20.3%
O=c1c2sccc2[nH]c(=S)n1Cc1ccccc1 | -26.7%
C=CCC(Nc1ccco1)c1ccccc1 (configuration not stated) | -20.1%
CCOC(=O)N1CCC(N(C(=O)Nc2ccc(Cl)c(Cl)c2)C(C)CC)CC1 (configuration not stated) | 20µM*
COCCN1C(=O)/C(=C/c2ccc(OCc3ccc(C(=O)O)cc3)c(OC)c2)SC1=Nc1ccccc1 | -8.3%
CCOC(=O)c1c(C)[nH]c(C(=O)Cn2c(=O)c3c(ncn3CC)n(Cc3ccccc3)c2=O)c1C | -12.9%
Nn1c(SCC(=O)Nc2nc3ccccc3s2)nncc1=O | -12.8%
O=C(CSc1ccccc1C(=O)NCc1ccccc1)NC1CCCCCCC1 | 20µM*
Cc1cc(/C=N/O)c(C)n1-c1ccc(Br)cc1 | ?
Brc1cccc(OCCCCN2CCCCC2)c1 | 3.5%
CCN(CC)S(=O)(=O)c1ccc(Cl)c(NC(=O)COC(=O)c2cc(-c3ccccc3Cl)nc3ccccc23)c1 | -16.8%
COCCn1c(=O)[nH]c(=O)c2c(C(F)(F)F)cc(-c3cccs3)nc21 | ?
CCNc1nc(NCC)n2c(SCC(=O)N(CC)C3CCCCC3)nnc2n1 | -5.2%
CCn1c(CCNC(=O)c2ccc(Cl)cc2Cl)n[nH]c1=S | -11.2%
CC(C)C(=O)Nc1cccc2nsnc12 | -10.4%
COc1ccc(S(=O)(=O)N(C)CC(=O)N2CCC(C)CC2)cc1Cl | -3.0%
CC(=O)c1cccc(NC(=O)Nc2ccc(C)cc2)c1 | -5.0%
Nc1c(O)ccc2c1C(=O)c1ccccc1C2=O | -14.3%
CC(C)C[C@@H](CC(=O)N[C@@H](CCC(=O)O)CC(=O)O)NC(=O)[C@@H]1CNCC[C@H]1NC(=O)C[C@@H](NC(=O)C[C@H](Cc1c[nH]c2ccccc12)NC(=O)[C@@H]1CCCC[C@H]1N)C(C)C | -2.7%
CC1CCC(C(C)C)C2=C1C(C#N)(C#N)C(C#N)(C#N)C(c1ccccc1)N2 (configuration not stated) | -13.4%
Next section
SMILES | HPGD block
CC(C)C(NC(=O)c1ccccc1)c1nnc(SCC(=O)Nc2nccs2)n1C (configuration not stated) | 3.2%
CC(=O)NNc1cccc(Cl)n1 | -5.4%
O=C(/C=C/c1ccccc1)N/C(=C\c1ccco1)C(=O)NCCO | -14.0%
Cn1cccc1C(=O)N1CCC2(CCN(Cc3ccccc3)CC2)CC1 | -0.9%
CC1CCN(S(=O)(=O)c2cccc(C(=O)Nc3nccs3)c2)CC1 | -21.9%
Cc1ccc(OC(=O)c2cccc(S(=O)(=O)N(C)C)c2)c(-n2nc3ccccc3n2)c1 | -16.2%
Cc1ccc(C2=NN(S(C)(=O)=O)C(c3cccs3)C2)cc1 (configuration not stated) | -1.1%
CC(C)NC(=O)N1CC[C@@]2(CCCN(C(=O)c3csnn3)C2)C1 | -5.2%
CCn1c(CCNC(=O)c2ccc(OC)c(OC)c2)nc2ccccc21 | -9.2%
COc1nnc(-c2ccc(N3CCOCC3)c(NC(C)=O)c2)c2ccccc12 | -0.1%
CSc1ccccc1NC(=O)CSCc1ccc(C)cc1 | 15.8µM*
Cc1ccc(N(CC(=O)Nc2cccc(N(C)S(C)(=O)=O)c2)S(C)(=O)=O)cc1 | -2.2%

Molecules listed so far that contain a furan ring, fused or not:
SMILES | HPGD block
Cc1ccc(/C(C#N)=C\c2ccc(N3CCOCC3)o2)cc1 | ?
O=C(Nc1ccc2c(c1)oc1ccccc12)c1ccc(Br)o1 | -8.5%
Cc1ccc(/C=N\NC(=O)Cn2nnc3ccccc32)o1 | -19.5%
Nc1nc2n(n1)C(c1ccco1)CC(c1ccc(F)cc1)N2 (configuration not stated) | -11.4%
Cc1ccc(S(=O)(=O)Cc2ccc(C(=O)O)o2)cc1 | -22.8%
C=CCC(Nc1ccco1)c1ccccc1 (configuration not stated) | -20.1%
O=C(/C=C/c1ccccc1)N/C(=C\c1ccco1)C(=O)NCCO | -14.0%

Later entries.
SMILES | HPGD block
Cc1ccc(C(C(=O)NC(C)(C)C)N(C(=O)c2csnn2)C2CC2)cc1 (configuration not stated) | 0.5%
CN(C)S(=O)(=O)N1CCN(c2ccccc2)CC1 | -10.0%
O=c1c2ccccc2c(/C=N/n2cnnc2)c(O)n1-c1ccccc1F | ?
COc1cccc(C(=O)N/N=c2\oc3c(OC)cccc3cc2C(=O)NCc2ccccc2)c1 | -2.2%
O=C(NCc1ccco1)c1ccc(Cn2c(=O)c3ccccc3n(Cc3ccc(Cl)cc3)c2=O)cc1 | -1.1%
Cc1ccc(C(=O)N2CCCCCC2)cc1Br | 5.01µM*
CCC(=O)NC(=S)Nc1ccc(Cl)cn1 | -5.7%
Cc1ccccc1-n1c(=O)cc(N2CCN(Cc3ccccc3)CC2)[nH]c1=O | -10.8%
COc1ccc(-n2nnnc2SCC#CCO)cc1 | -7.5%
Cc1ccc(S(=O)(=O)c2c(C)nn(C(C)(C)C)c2OC(=O)C2CCCC2)cc1 | 0.0%
CC1CC(C)CN(CCOc2ccc(Cl)cc2Cl)C1 (configuration not stated) | -6.9%
COc1nc(Oc2ccc(=O)[nH]n2)nc(N2CCOCC2)n1 | -5.0%

Brought forward from above: 2 compounds, followed by the next part.
SMILES | HPGD block
CC1CC(C)CN(CCOc2ccc(Cl)cc2Cl)C1 (configuration not stated) | -6.9%
COc1nc(Oc2ccc(=O)[nH]n2)nc(N2CCOCC2)n1 | -5.0%
O=C(Nc1ccccc1)N1CCCc2ccccc21 | -27.5%
COc1ccc(-c2nncnn2)cc1 | -9.1%
CCOC(=O)C1CCCN(c2c(NCC3CCCO3)c(=O)c2=O)C1 (configuration not stated) | -5.0%
CCOc1cc2c(cc1OCC)C(c1ccc(OC)cc1)N(c1ccccc1)C(=O)C2 (configuration not stated) | -15.8%
Cn1c(N)c(C#N)c2c(c1=S)COC(C)(C)C2 | -12.8%
O=C(CN(c1ccccc1)S(=O)(=O)c1ccccc1[N+](=O)[O-])NN=C1CCCCCCC1 | -10.7%
Cn1c(SCc2ccc(C#N)cc2Cl)nc2ccccc21 | -7.0%
CCn1c(=NC(=O)CSCC(=O)Nc2nccs2)sc2ccccc21 | -3.2%
CC1CCN(CCCCOc2ccc(Br)cc2)CC1 | 0.0%
CNC(=S)Nc1ccc(Br)cc1 | -5.5%
Cc1occc1C(=O)NNC(=O)COc1ccc(Br)cc1Br | -0.9%
COC(=O)C1=C(C(=O)OC)[C@@H]2N(C)c3ccc(OC)cc3[C@@]23C[C@@H](C(=O)OC)N(S(=O)(=O)c2ccc([N+](=O)[O-])cc2)C3=N1 | 1.2%

Gathered by group, those above with a CF3 group.
SMILES | HPGD block
COc1ccc(OC)c(C2SCCN2S(=O)(=O)c2cccc(C(F)(F)F)c2)c1 (configuration not stated) | -27.4%
COCCn1c(=O)[nH]c(=O)c2c(C(F)(F)F)cc(-c3cccs3)nc21 | ?

Going on with the list:
SMILES | HPGD block
Cc1cccc(C(=O)NC(NC(=S)Nc2ccc(S(N)(=O)=O)cc2)C(Cl)(Cl)Cl)c1 (configuration not stated) | ?
CCCC(C(=O)c1ccccc1)n1cncn1 (configuration not stated) | -6.8%
CCS(=O)(=O)N1CCN(C(=O)c2cccnc2)CC1 | -11.5%
COc1ccc2c(c1)nc(N)n2Cc1ccccc1 | -9.7%
Cc1ccc(-c2nnc(N3CCN(C(=O)COc4ccccc4)CC3)c3ccccc23)cc1 | -17.7%
COc1ccc(-c2ccc(C(=S)N3CCN(C(C)=O)CC3)o2)cc1 | 11.2µM*
CCCN(CCC)S(=O)(=O)c1ccc(C(=O)Nc2ccc(OCC(=O)N3CCOCC3)cc2)cc1 | -7.7%
CCOCCn1c(SCc2ccc(F)cc2)nc2c1c(=O)[nH]c(=O)n2C | -7.5%
COc1ccccc1NC(=O)CSc1nnc(-c2ccoc2C)n1CCc1ccccc1 | -11.9%
O=C(CSc1nc(-c2ccccc2)cc(C(F)(F)F)n1)NCCN1CCOCC1 | -9.7%
O=C(O)CCSCCC(=O)O | -3.6%
CCOC(=O)CNc1ncc([N+](=O)[O-])cc1C#N | 1.7%
O=C(NCCc1cccc(Cl)c1)c1ccc(Cl)c([N+](=O)[O-])c1 | -21.1%
Cc1ccccc1Nc1nc(N)nc(CN(C)c2ccccc2)n1 | -3.2%
CCOC(=O)c1ccc(OCc2c(C)noc2C)cc1 | -22.7%
COc1ccccc1-c1nnc2sc(-c3cc4ccccc4o3)nn12 | -21.4%
CC(C)c1cccc2cc3c(nc12)-c1cccc(=O)n1C3 | ?
CCOC(=O)N1CCN(C(=O)CSc2nnc(-c3cccc(OC)c3)o2)CC1 | -11.1%
COc1cc(/C=C2/SC(=S)N(C)C2=O)ccc1OC(=O)c1ccco1 | -17.2%
O=C(CN1CCNCC1)Nc1ccccc1Cl | -1.8%
Oc1nc(Nc2ccc(Cl)cc2Cl)sc1/C=C1\C=Nc2ccccc21 | ?
COc1ccc(O[C@H]2C=C[C@@H](c3ccccc3)O[C@@H]2COC(=O)CC/C(C)=N/O[C@@H](C)c2cc(-c3c(C)cc(C)cc3C)no2)cc1 | -11.5%
Cc1ccc2cc(-c3noc(C(C)(C)C)n3)c(=O)[nH]c2c1 | ?
CCOCC(=O)N1CCCC(C(=O)OCC)C1 (configuration not stated) | -1.9%
CCOC(=O)c1c(C)c(C(=O)NCCOC)c(C)n1CC | 8.91µM*
CS(=O)(=O)N1CCN(c2ccc(C(=O)NC34CC5CC(CC(C5)C3)C4)cc2[N+](=O)[O-])CC1 | -13.6%
O=c1c2ccccc2n(Cc2ccccc2F)c(=O)n1Cc1ccccc1F | -12.1%
